StopGo reporter = FMDV 2A StopGo reporter, luciferase signal | 410,000 compounds, 1.2% hits | Potency, µM (top dose mostly 57.9 µM), for the others: at the highest dose signal change, negative = less light | human cells with a luciferase reporter of 2A StopGo recoding; control for the full effect not named in the record; active = well fitted falling curve with a large enough effect; inconclusive = small, poorly fitted or top-dose-only effect; inactive = no such curve, though single readings can be large or run the other way; tested in HEK293T cells; further: nearly all actives have a fitted effect of over 45% in size; luciferase light after 4 h
RE007 growth inh = less growth of the S. pombe RE007 Vpr strain. S. pombe RE007 Vpr strain, BacTiter-Glo ATP luminescence, 24 h; control for the full effect not named in the record. Potency, µM (top dose mostly 92.2 µM), for inactives: top-dose activity change, negative = less growth. 360,000 compounds, 0.21% hits; active = well fitted falling curve with a large enough effect; inconclusive = small, poorly fitted or top-dose-only effect; inactive = no such curve, though single readings can be large or run the other way;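 further: nearly all actives have a fitted effect of over 50% in size; the assay follows cell death caused by Vpr and the record does not say whether a fall means rescue or toxicity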
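Fission yeast strain RE007, carrying one chromosomally integrated HIV-1 vpr copy, was seeded at OD 0.01 in PMG+AL medium with 23 nL pinned compound. After 24 h at 30 °C and 99% humidity, viability was read by BacTiter-Glo luminescence.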
Active calls of the source: *; u = inconclusive; [ ] = dose if it differs, or a comment. On the % scale 0 is the no-effect control and ±100 the full control effect; potency means the concentration at half of the fitted maximal effect. This is a subset (hit frequency here may not be typical).

item	structure	StopGo reporter	RE007 growth inh
1	COc1cccc(C(C)(O)c2nc(-c3ccc(Cl)cc3)cs2)c1 (stereo not drawn)	-11%	30%[18.4 µM]
2	CC(=O)OCC(C)n1[nH]c2ccccc2c1=O (stereo not drawn)	-5%	4%
3	[O-][n+]1ccc(CC(O)(C(F)(F)F)C(F)(F)F)cc1	-2%	-20%
4	COc1cc2c3c(cccc3c1)C(=O)N(CCN1CCCC1)C2=O	0%	-18%
5	Nc1ccn([C@@H]2O[C@H](C(=O)Nc3cc(C(F)(F)F)cc(C(F)(F)F)c3)[C@@H](O)[C@H]2O)c(=O)n1	-20%	6%
6	COc1ccc(S(=O)(=O)N(C)C[C@H]2OCCCC[C@H](C)Oc3ccc(N(C)C)cc3C(=O)N([C@H](C)CO)C[C@@H]2C)cc1	u	25%
7	CCC(c1nnnn1-c1ccc2c(c1)OCCO2)N1CCN(c2ccc(C)cc2)CC1 (stereo not drawn)	-11%	-10%
8	CC(C)(C)NC(=O)C(c1cc2ccccc2o1)n1c(-c2ccc(-c3ccccc3)cc2)nc2ccccc21 (stereo not drawn)	9%	-11%
9	CCc1nc2ccc(C(=O)Nc3cc(-c4ccccc4)ccc3OC)cn2c1N(CC)CCN(C)C	-14%	-3%
10	COc1cc(NCCCCC(C)N)c2nccc(C)c2c1 (stereo not drawn)	-24%	-4%
11	CCc1cc(-c2nnn(CCC3COCCO3)c2CC)ccc1-c1cn(CCc2c[nH]c3ccccc23)nn1 (stereo not drawn)	0%	3%
12	CN(C)c1cccc(NC(=O)c2cccc3c(-c4ccc(F)c(F)c4)coc23)c1	-12%	16%
13	CCOC(=O)c1c(-c2ccc(N(C)C)cc2)oc2c1C(OC)CC2 (stereo not drawn)	-14%	-20%
14	O=C(N/N=C/c1ccoc1)c1cccc(OC(F)(F)C(F)F)c1	87%[activator]	25%
15	CC(=O)NC(c1ccccc1)c1nc(-c2ccc(S(C)(=O)=O)cc2)cs1 (stereo not drawn)	-6%	3%[18.4 µM]
16	COc1cccc(C(=O)N2CCN(Cc3nc(-c4ccoc4)oc3C)CC2)c1	-21%	0%
17	CC(C)(C)CN1C(=O)C(=O)NC[C@@H]1CCCCN	-6%	0%
18	CN(C(=O)c1cccc(NC(=O)Cc2ccc(NC(=O)C3CCCN(C(=O)C4CC4)C3)cc2)c1)C1CCC1 (stereo not drawn)	1%	-10%
19	O=C(Cc1ccc(NC(=O)C2CCCN(C(=O)C3CCCCC3)C2)cc1)Nc1cccc(C(=O)N2CCCC2)c1 (stereo not drawn)	-11%	2%
20	COCCNc1nc(NCc2ccccc2F)c2sccc2n1	u	u
21	COc1ccccc1OCCn1nc2ccccc2c1OC	3%	-6%
22	CCc1nc2c(OCc3ccc(Cl)cc3)cccn2c1N(C=O)Cc1ccc(OC)cc1	0%	-11%
23	COc1ccc(C#Cc2cnc3c(c2)C(=O)N([C@H](C)CO)C[C@H](C)[C@@H](CN(C)C(=O)Nc2cccc(OC)c2)O3)cc1	0%	1%
24	O=C1NCN(c2ccccc2)C12CCN(C(c1cccs1)c1nnnn1Cc1ccccc1)CC2 (stereo not drawn)	-18%	6%
25	Cc1ccc(CN2CCC[C@]3(N[C@H](c4ccc(C(F)(F)F)cc4)[C@@H]4C(=O)N(C)C(=O)[C@@H]43)C2=O)cc1	-25%	5%
26	Cc1nc(C(F)(F)F)ccc1C(=O)N1CCCC(C)(C(=O)O)C1 (stereo not drawn)	-18%	-10%
27	COCCNC(=O)C1(C)CCCN(CCSc2ccccc2)C1 (stereo not drawn)	-23%	-11%[18.4 µM]
28	Cc1nc2ccc(Cl)cn2c1[N+](=O)[O-]	-26%	-2%
29	Cc1cc2oc(=O)cc(CN3CCCC3)c2cc1Cl	-2%	-20%
30	O=C(NCc1c(Cl)cccc1Cl)c1[nH]c(C(F)(F)F)nc1-c1ccccc1	-6%	0%
31	COc1cc(NCCCn2ccc(NC(=O)OCc3ccccc3)nc2=O)cc(OC)c1OC	-17%	-9%
32	CN(C)P1(=O)N(C)CCN1C	-3%	6%
33	COc1ccc(OC)c2sc(NC(=O)C3COc4ccccc4O3)nc12 (stereo not drawn)	0%	-25%
34	Cc1ccc([C@@H]2C[C@H]3[C@@H](CN2S(=O)(=O)c2ccc(Cl)cc2)C(=O)C[C@@H](c2ccc(C)cc2)N3S(=O)(=O)c2ccc(Cl)cc2)cc1	-26%	1%
35	CC(C)NC(=O)C1C(c2ccc(C(F)(F)F)cc2)=Nc2ccccc2N1C(=O)c1ccco1 (stereo not drawn)	12%	-7%
36	O=C(CN1C(=O)c2cccc([N+](=O)[O-])c2C1=O)N1CCc2ccccc2C1	1%	-2%
37	O=C(C1CCCCC1)N1C[C@@H](n2cc(-c3ccc(F)cc3)nn2)[C@H](O)C[C@@H]1c1ccccc1	-25%	-7%
38	COc1cc(-c2noc(C)c2C(=O)N[C@@H](CO)Cc2ccccc2)cc(OC)c1OC	-13%	20%
39	CCOC(=O)c1cc(-c2cccc(O)c2)oc1C	19%	-7%
40	CCOc1ccc(Oc2ccccc2NC(=O)CCc2nc3ccccc3c(=O)[nH]2)cc1	-30%	5%

Of the compounds above, these contain a furan ring, fused or not:
item	structure	StopGo reporter	RE007 growth inh
8	CC(C)(C)NC(=O)C(c1cc2ccccc2o1)n1c(-c2ccc(-c3ccccc3)cc2)nc2ccccc21 (stereo not drawn)	9%	-11%
12	CN(C)c1cccc(NC(=O)c2cccc3c(-c4ccc(F)c(F)c4)coc23)c1	-12%	16%
13	CCOC(=O)c1c(-c2ccc(N(C)C)cc2)oc2c1C(OC)CC2 (stereo not drawn)	-14%	-20%
14	O=C(N/N=C/c1ccoc1)c1cccc(OC(F)(F)C(F)F)c1	87%[activator]	25%
16	COc1cccc(C(=O)N2CCN(Cc3nc(-c4ccoc4)oc3C)CC2)c1	-21%	0%
35	CC(C)NC(=O)C1C(c2ccc(C(F)(F)F)cc2)=Nc2ccccc2N1C(=O)c1ccco1 (stereo not drawn)	12%	-7%
39	CCOC(=O)c1cc(-c2cccc(O)c2)oc1C	19%	-7%

Remaining list, next part.
item	structure	StopGo reporter	RE007 growth inh
41	CCOc1ccc(C(=O)CCC(=O)NN2CCCCC2)cc1	2%	-12%
42	Cc1ccccc1-c1cc2nc(NCCOc3ccccc3Cl)n(C)c(=O)c2s1	-14%	-6%[18.4 µM]
43	CCOC(=O)c1cc(OC)c2cccc(CN3CCC(C)(C(=O)NCCOC)C3)c2c1 (stereo not drawn)	-7%	-9%
44	O=C(Nc1nnc([C@@H]2O[C@H](CO)[C@@H](O)[C@H]2O)s1)Nc1cccc2c1CCCC2	-23%	-13%[18.4 µM]
45	CN1OC[C@@H]2CN(C(=O)NC3CCCCC3)[C@H](c3ccc(N4CCCCC4)cc3)C[C@@H]21	-6%	3%
46	COC(=O)C1=C(c2ccc(S(C)(=O)=O)cc2)C[C@@H]2CC[C@H]1N2C(=O)N1CCC(C)CC1	-10%	-11%
47	COc1cc(-c2cc(NC=O)c3ncc(-c4ccc(C(C)=O)cc4)n3c2)ccc1O	-13%	-15%
48	Cc1ccc(S(=O)(=O)N2C(c3ccc(Cl)c(Cl)c3)CC=C(C(=O)O)C2c2ccc(Cl)cc2)cc1 (stereo not drawn)	4%	-8%
49	COc1ccc(CC(=O)O/N=C(\N)c2ccncc2)cc1OC	-6%	-7%
50	N#Cc1ncn(C2OC(CO)C(O)C2O)c1N (stereo not drawn)	-12%	-2%
51	COc1ccc(CC(N)c2csc(NC(=O)Nc3ccccc3C(C)(C)C)n2)cc1 (stereo not drawn)	-16%	13%
52	COc1ncc(-c2ccc(N3C(c4ccsc4)=Cc4ccc(F)cc4C3CC(=O)c3ccco3)cc2)cn1 (stereo not drawn)	-12%	3%
53	COc1cc(/C=N/Nc2nc(C)cc(C)n2)ccc1O	10%	-15%
54	CC(=O)c1cccc(-c2ccnc3c2CC(C(=O)N2CCN(C)CC2)O3)c1 (stereo not drawn)	3%	1%
55	CCC1=C(NCc2ccccc2)COC1=O	-7%	-4%
56	CCCS(=O)(=O)NC(=O)C1(C)CCCN(C(=O)COc2ccccc2)C1 (stereo not drawn)	7%	9%
57	CC1C2CCC(C2)C1OC(=O)c1ccccc1C(=O)O (stereo not drawn)	3%	-6%
58	OCC[C@@H]1C[C@H](O)[C@@H](O)[C@@]2(OCc3ccc(CO)cc32)O1	-37%	5%
59	COCCCNC(=O)C[C@@H]1C[C@@]2(C(=O)OC)CCCCC=C2N(Cc2ccco2)C1=O	-26%	1%
60	Cc1ccc(CN2C(=O)C(F)(F)Oc3ccc(C)cc32)cc1	-18%	-10%
61	COc1cc(C(O)c2nc(-c3cc(F)cc(F)c3)cs2)ccc1F (stereo not drawn)	-10%	4%
62	CN(CC(=O)Nc1cc(C(F)(F)F)ccc1-n1cncn1)Cc1nc2ccccc2c(=O)[nH]1	-22%	18%
63	Cc1ccc(C(=O)NC(=S)NCc2ccccc2)cc1Br	27%	13%
64	COC(=O)C1=C(c2ccc(S(C)(=O)=O)cc2)C[C@@H]2CC[C@H]1N2C(=O)NCc1ccc(F)cc1	-16%	10%
65	CC1=C[C@@H](C)[C@@H](c2ccccc2)OC1=O	-7%	2%
66	COc1ccc(C2=Nc3ccccc3N(C(=O)c3cccnc3)C2C(=O)NC(C)(C)C)cc1 (stereo not drawn)	14%	19%
67	O=C1NC[C@@H](CCCCN2CCN(Cc3ccccc3)C(=O)C2=O)N(CCC2CCCCC2)C1=O	39%[activator]	-7%
68	COc1ccc(S(=O)(=O)N2CCC(C(=O)N[C@@H](C)C(=O)NCc3ccccn3)CC2)cc1	-22%	-8%
69	CC(C)CC(N)c1csc(NC(=O)Nc2ccccc2-c2ccccc2)n1 (stereo not drawn)	0%	11%
70	CN(C)CCNc1ncnc2c1ncn2[C@H]1CN(C)C[C@@H](CO)O1	-15%	0%
71	CC1(C(=O)NCc2ccccn2)CCN1C(=O)Cc1ccc(Cl)cc1Cl (stereo not drawn)	-12%	10%[18.4 µM]
72	O=C(CC(CC(=O)c1ccccc1)c1ccco1)c1ccccc1	0%	-15%
73	O=S1(=O)CCN(C2CC2)CC1	-15%	-25%
74	COc1cc(-c2coc3c(C(=O)NCc4ccccc4)cccc23)ccc1O	10%	-8%
75	CC(C)C[C@H]1CNC(=O)C(=O)N1C[C@H]1CCCN1C[C@H](CC(C)C)N1C[C@H](Cc2ccccc2)N(CCc2ccccc2)C(=O)C1=O	-8%	-24%
76	COc1ccc(CCN2C(=O)COc3ccccc3C2C(=O)Nc2c(C)cccc2C)cc1OC (stereo not drawn)	-15%	5%
77	NC(Cc1ccccc1)c1csc(NC(=O)Nc2ccccc2Oc2ccccc2)n1 (stereo not drawn)	-30%	-4%
78	O=C(O)C(Cc1ccccc1)N1C(=O)C2C3CCC(C3)C2C1=O (stereo not drawn)	0%	2%
79	COc1cccc(C(c2nnnn2Cc2ccccc2)N2CCC(n3c(=O)[nH]c4ccccc43)CC2)c1OC (stereo not drawn)	-29%	0%
80	Cc1ccc(C(=O)Nc2c(-c3ccc(Cl)cc3)[nH][nH]c2=O)cc1	0%	2%
81	CCCC(CNC(C)=O)(C1=CCCCC1)c1ccccc1 (stereo not drawn)	u	4%
82	O=C1NC[C@H](Cc2ccc(O)cc2)N(C[C@@H]2CCCN2C[C@H](Cc2ccc(O)cc2)N2C[C@H](Cc3ccccc3)N(CC3CCCCC3)C(=O)C2=O)C1=O	-1%	3%
83	CCOC(=O)C1=CCN(S(=O)(=O)c2cccc(Cl)c2)C1c1ccc(C)cc1 (stereo not drawn)	-14%	8%
84	CC(C)Oc1ccc(S(=O)(=O)N2CCCCC2)cc1NC(=O)C1=NN(c2ccccc2)C(=O)CC1	-29%	-2%
85	CC(=O)Nc1cccc(NC(=O)c2ccccc2Cl)c1	-24%	-5%
86	COC(=O)C1=CN(c2ccc(C)cc2)C(N)=C(C#N)C1c1ccccc1F (stereo not drawn)	-15%	1%
87	CCO[C@H]1OC(C(=O)O)=C[C@@H](c2cn(C(C)=O)c3ccccc23)[C@@H]1CCCO	6%	5%
88	CC(C)C[C@H]1CN(CCCC[C@H]2CNC(=O)C(=O)N2CC2CCCCC2)C(=O)C(=O)N1CCc1ccc(O)cc1	-13%	-7%
89	CC(N)c1csc(Nc2ccc(S(C)(=O)=O)cc2)n1 (stereo not drawn)	-2%	9%[18.4 µM]
90	CCOC1=C2[C@H](c3ccccc3)N(S(=O)(=O)c3ccc(C)cc3)[C@H](C(C)C)[C@H]2n2c(=O)n(-c3ccccc3)c(=O)n2C1	0%	-6%

Later entries
item	structure	StopGo reporter	RE007 growth inh
91	COc1ccc(NC(=O)COC(=O)CN2C(=O)C3CCCCC3C2=O)cc1 (stereo not drawn)	73%[activator]	9%
92	O=C1Nc2ccccc2NC(c2ccc3c(c2)OCO3)=C1N(Cc1ccc(F)cc1)C(=O)c1ccco1	-4%	-14%
93	COc1ccc(NC(=O)C2(C)CCN2C)cc1OC (stereo not drawn)	-10%	-6%
94	CC(=O)c1ccc(-c2[nH]c3ccccc3c2CCN2C(=O)c3ccccc3C2=O)cc1	-24%	-12%
95	CCOc1ccc(CCN2C(=O)C(=O)N([C@@H](CC(C)C)CN3CCC[C@H]3CN3C(=O)C(=O)NC[C@@H]3Cc3ccc(O)cc3)C[C@@H]2Cc2ccccc2)cc1	6%	-19%
